Rango dissoc inh: inhibition of RanGTP-driven Rango-importin beta dissociation | hit rate 0.071% among 340,000 | Biochemical FRET Rango-importin beta, RanGTP-induced dissociation | Potency, µM (top dose mostly 46.1 µM), for inactives: at the highest dose activity change, negative = inhibition; active means falling FRET ratio curve, often poorly fitted, with flat reads before Ran was added; inconclusive means other falling curves, or compound fluorescence or quenching; inactive means flat or rising ratio curve;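 note: potency is the fitted concentration of half-maximal effect; % of control where 0% means no effect; nearly all actives have a fitted effect of over 45% in size; -100% = wells without RanGTP and RCC1; the record marks most hits as doubtful in a second field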
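Recombinant Rango FRET biosensor (EYFP–snurportin 1 IBB–cerulean CFP10) at 0.1 uM premixed with 0.25 uM importin beta in PBS, 1 mM DTT, 0.02% Tween-20, 0.1% BSA. Compound added 5 min; RanGTP-RCC1 (0.6 uM Ran, 2 mM GTP, 0.2 uM RCC1) then triggers release, read at 45 min.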
GLA inh pH 4.5: inhibitors of human alpha-galactosidase A at pH 4.5; 230,000 tested, under 10 active; purified enzyme, 4-MU-alpha-Gal fluorescence, pH 4.5; P06280; activity change, negative = inhibition, % at 105 µM; inconclusive = small, poorly fitted or top-dose-only inhibition, or a rising curve; inactive = flat fitted curve, though single readings scatter; no compound was filed as active;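 note: 0% = full activity with enzyme and -100% = basal without enzyme; dose as in the result columns while the protocol names 77 µM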
Target sequence (P06280 whole entry, looked up): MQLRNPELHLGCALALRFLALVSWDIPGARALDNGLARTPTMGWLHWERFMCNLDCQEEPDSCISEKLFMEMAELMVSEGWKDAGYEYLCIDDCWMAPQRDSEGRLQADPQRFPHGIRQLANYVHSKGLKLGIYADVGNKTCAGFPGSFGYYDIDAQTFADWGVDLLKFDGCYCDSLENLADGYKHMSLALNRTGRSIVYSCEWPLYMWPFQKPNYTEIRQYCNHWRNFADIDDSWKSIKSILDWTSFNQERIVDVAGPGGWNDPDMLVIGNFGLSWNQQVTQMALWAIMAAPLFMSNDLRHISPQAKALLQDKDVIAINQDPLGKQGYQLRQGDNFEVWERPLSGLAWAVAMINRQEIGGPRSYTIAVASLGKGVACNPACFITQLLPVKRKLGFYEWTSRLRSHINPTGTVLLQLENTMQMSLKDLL
miR-21 reporter: miR-21 reporter, rising signal. HeLa miR-21 FLuc reporter, luciferase, 48 h. Potency, µM (highest dose often 38.3 µM), for inactives: top-dose reporter change, positive = more light. 340,000 tested, under 10 active. AID 2288; active = well fitted rising curve with a large enough effect; inconclusive = small, poorly fitted or top-dose-only effect; inactive = no such curve, though single readings can be large or run the other way;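 note: % of control where 0% means no effect; miR-21 action dims this reporter so a rising signal means less miR-21 action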
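HeLa cells endogenously expressing miR-21, stably carrying CMV-driven firefly luciferase with a downstream miR-21 binding site, 2000 cells/well. Titrations up to approximately 40 uM, 48 hours; luciferase luminescence read.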
Rango-impB inh: inhibitors of Rango-importin beta complex formation; Q14974; Rango CFP/YFP FRET sensor + importin beta, 45 min; Potency, µM (highest dose often 92.2 µM), without a hit: top-dose inhibition of complex formation; hit rate 0.031% among 340,000; active = rising FRET ratio curve, often small or poorly fitted; inconclusive = mostly compound fluorescence or quenching in the first reads; inactive = flat curves in all reads;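 note: potency is the fitted concentration of half-maximal effect; 0% = DMSO wells and 100% = buffer wells lacking importin beta; nearly all actives have a fitted effect of over 15% in size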
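Inhibition scored from the CFP 486 nm/YFP 530 nm FRET ratio 45 min after adding 0.125 microM importin beta to 50 nM Rango biosensor preincubated 5 min with compound (room temperature, PBS with DTT, Tween-20, BSA). No-importin wells as positive control.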
Starred values were filed as active, the others as inactive; [ ] = dose if it differs, or a comment. This is a subset (hit frequency here may not be typical).

For CC(C)CNC(=S)NNC(=O)c1ccccc1OC(F)F the results were Rango dissoc inh -15%, GLA inh pH 4.5 1, miR-21 reporter 0% and Rango-impB inh 1.4%.
`COc1ccc(S(=O)(=O)NCC2CCCO2)c(Cl)c1Cl` (stereo unspecified) gave Rango dissoc inh -8%, miR-21 reporter -7% and Rango-impB inh -3.3%.
`Cc1c(C)c(C)c(CN2CCCC2)c(C)c1C` gave Rango dissoc inh 0%, GLA inh pH 4.5 5, miR-21 reporter 5% and Rango-impB inh 0.0%.
Cc1sc2c(c1C)c(=O)nc1n2Cc2ccccc2-1 was read as GLA inh pH 4.5 2 and miR-21 reporter -11%.
`CCOC(=O)c1cnc2c(C)c(C)ccc2c1NCCN1CCOCC1` gave Rango dissoc inh -1%, miR-21 reporter 1% and Rango-impB inh -2.8%.
`O=C(COC(=O)/C=C/c1cccc(C(F)(F)F)c1)NC(=O)NCc1ccco1` gave Rango dissoc inh -2% and Rango-impB inh -3.6%.
For CCC(C(=O)OCC(=O)Nc1ccc(F)cc1)c1ccccc1 (stereo unspecified) the results were Rango dissoc inh -19% and Rango-impB inh 0.5%.
Cc1ccc(N/C=C(/C#N)c2ccsc2)cc1C was read as Rango dissoc inh -8%, GLA inh pH 4.5 3, miR-21 reporter -46% and Rango-impB inh 4.1%.
For COc1ccc(C(c2nnnn2Cc2cccs2)N2CCN(c3ccccc3F)CC2)cc1OC (stereo unspecified) the results were Rango dissoc inh 0%, GLA inh pH 4.5 -6, miR-21 reporter 3% and Rango-impB inh 1.2%.
CN(CCCN1CCOCC1)C(=O)c1ccc2nc(Cc3cccc(Cl)c3)oc2c1 was read as Rango dissoc inh 2%, miR-21 reporter 0% and Rango-impB inh 4.3%.
For C=CC[C@@H](CC(=O)N(CCO)Cc1ccccc1)C(=O)N[C@H](COC(=O)[C@@H](CC=C)Cc1ccc(F)cc1)Cc1c[nH]c2ccccc12 the results were Rango dissoc inh 12% and Rango-impB inh 0.8%.
Screening CCNC(=O)CN1C(=O)NC2(CCCc3cc(OC)ccc32)C1=O (stereo unspecified) returned Rango dissoc inh 3%, GLA inh pH 4.5 -2, miR-21 reporter 0% and Rango-impB inh 0.7%.
Screening O=C(c1ccccc1)N1CCN(c2ccc([N+](=O)[O-])c(N3CCOCC3)c2)CC1 returned Rango dissoc inh -3%, GLA inh pH 4.5 -26, miR-21 reporter 1% and Rango-impB inh 0.0%.
Screening O=C(CCCOc1ccccc1)Nc1nccs1 returned Rango dissoc inh -8%, GLA inh pH 4.5 2, miR-21 reporter -12% and Rango-impB inh -2.0%.
CCc1c(O)nc(SCC(=O)Nc2ccc(OC)cc2)n(C2CCCCC2)c1=O was read as Rango dissoc inh 26%, GLA inh pH 4.5 2, miR-21 reporter 7% and Rango-impB inh -6.6%.
For CCNc1nc(NC(C)C)nc(N2CC(=O)N(CC(=O)OCC)C2=N)n1 the results were Rango dissoc inh -7%, GLA inh pH 4.5 -3, miR-21 reporter -17% and Rango-impB inh -2.2%.
`COc1cc(C#Cc2c(C=O)n(C)c3ccccc23)cc(OC)c1` gave Rango dissoc inh inconclusive and Rango-impB inh inconclusive.
Screening O=C(Nc1ccccc1)c1ccc2c(c1)OCCCO2 returned Rango dissoc inh 0%, miR-21 reporter 5% and Rango-impB inh -2.3%.
Cn1c2c(c(=O)n(C)c1=O)C(c1ccccc1OC(F)F)C1=C(CCCC1=O)N2 (stereo unspecified) was read as Rango dissoc inh inconclusive, GLA inh pH 4.5 4, miR-21 reporter -2% and Rango-impB inh inconclusive.
COC(=O)c1cc(/C=C/c2ccccc2)[nH]n1 was read as Rango dissoc inh 18%, miR-21 reporter -44% and Rango-impB inh 0.7%.
Screening COc1ccc(C(=O)CSc2nnnn2C)c(OC)c1 returned Rango dissoc inh 1%, GLA inh pH 4.5 7, miR-21 reporter 0% and Rango-impB inh 0.0%.
COc1cccc(C(=O)NNC(=O)C2CCCO2)c1 (stereo unspecified) was read as Rango dissoc inh -4%, miR-21 reporter 0% and Rango-impB inh -0.7%.
CC(=O)Nc1ccccc1Nc1cc(C#N)c(C#N)cc1[N+](=O)[O-] was read as Rango dissoc inh 2%, GLA inh pH 4.5 -7, miR-21 reporter 10% and Rango-impB inh 0.4%.
`O=C(CCc1nc2ccccc2[nH]c1=O)OCC(=O)c1ccc(Cl)cc1` gave Rango dissoc inh -10%, GLA inh pH 4.5 0, miR-21 reporter -3% and Rango-impB inh -1.5%.

4 entries already listed, sorted by formula weight, smallest number first:
COc1cccc(C(=O)NNC(=O)C2CCCO2)c1 (stereo unspecified) was read as Rango dissoc inh -4%, miR-21 reporter 0% and Rango-impB inh -0.7%.
Screening O=C(Nc1ccccc1)c1ccc2c(c1)OCCCO2 returned Rango dissoc inh 0%, miR-21 reporter 5% and Rango-impB inh -2.3%.
`COc1cc(C#Cc2c(C=O)n(C)c3ccccc23)cc(OC)c1` gave Rango dissoc inh inconclusive and Rango-impB inh inconclusive.
CCc1c(O)nc(SCC(=O)Nc2ccc(OC)cc2)n(C2CCCCC2)c1=O was read as Rango dissoc inh 26%, GLA inh pH 4.5 2, miR-21 reporter 7% and Rango-impB inh -6.6%.

(next part)
O=C1CC(c2ccc(F)cc2)Cc2nc(N3CCOCC3)ncc21 (stereo unspecified) was read as Rango dissoc inh 5%, GLA inh pH 4.5 3, miR-21 reporter -6% and Rango-impB inh 7.1%.
Screening Cc1ccc2nc(-c3ccc(NC(=S)NC(=O)CC(C)C)cc3)sc2c1 returned Rango dissoc inh -3%, GLA inh pH 4.5 7, miR-21 reporter -51% and Rango-impB inh 1.1%.
For CN(C)c1nc2n(c(=S)n1)CCS2 the results were Rango dissoc inh 8%, GLA inh pH 4.5 0, miR-21 reporter -9% and Rango-impB inh 0.4%.
COc1ccc(OC)c(-c2csc(NC(=O)c3ccc(OCC4CCCO4)cc3)n2)c1 (stereo unspecified) was read as Rango dissoc inh -5%, GLA inh pH 4.5 -8, miR-21 reporter inconclusive and Rango-impB inh -1.1%.
`O=C(/C(N=Nc1cccc(C(F)(F)F)c1)=C(/O)c1cccs1)C(F)(F)F` gave Rango dissoc inh 9%, GLA inh pH 4.5 -6, miR-21 reporter 7% and Rango-impB inh -0.3%.
`CCOc1ccc2nc3cc(NCc4ccc(OC)cc4)ccc3c(N)c2c1` gave Rango dissoc inh inconclusive, miR-21 reporter inconclusive and Rango-impB inh -1.7%.
CCOC(=O)CSc1nnnn1-c1cccc2ccccc12 was read as Rango dissoc inh 25%, GLA inh pH 4.5 -6, miR-21 reporter -3% and Rango-impB inh 0.7%.
`CC(=O)c1cnc(SCC(=O)O)nc1C` gave Rango dissoc inh 23%, GLA inh pH 4.5 -5, miR-21 reporter 1% and Rango-impB inh -1.7%.
O=[N+]([O-])c1ccccc1N/N=C1\CC2CC=CC12 (stereo unspecified) was read as Rango dissoc inh -2%, GLA inh pH 4.5 2, miR-21 reporter -82% and Rango-impB inh -4.0%.
Screening COc1ccc(C(=O)Nc2cc(OC)ccc2OC)cc1 returned Rango dissoc inh 8%, GLA inh pH 4.5 -3, miR-21 reporter -29% and Rango-impB inh -1.4%.
Screening CCOC(=O)c1cnc2ccccc2c1Nc1ccc2c(c1)OCCO2 returned Rango dissoc inh -5%, GLA inh pH 4.5 -1, miR-21 reporter -29% and Rango-impB inh -4.0%.
CC(=O)Nc1ccc(OCc2ccccc2)cc1[N+](=O)[O-] was read as Rango dissoc inh 0% and Rango-impB inh -4.1%.
Screening O=C(COC(=O)c1cc(=O)[nH]c2ccccc12)NCc1ccc(Cl)cc1 returned Rango dissoc inh -3% and Rango-impB inh -2.3%.
Screening CN(CC1CCCCO1)C(=O)c1cc(COc2ccc(F)cc2Cl)on1 (stereo unspecified) returned Rango dissoc inh 26%, miR-21 reporter -4% and Rango-impB inh -0.9%.
Screening Cn1nnnc1SCC(=O)Nc1ccc(Oc2ccc(Cl)cc2)cc1 returned Rango dissoc inh 1%, GLA inh pH 4.5 -3, miR-21 reporter 0% and Rango-impB inh -11%.
CCOC(=O)c1ccccc1NC(=O)CSc1nc2c(c(=O)n(C)c(=O)n2C)n1C was read as GLA inh pH 4.5 5 and miR-21 reporter -4%.
`Cc1ccc(CC(=O)NC2CCCc3ccccc32)cc1C` (stereo unspecified) gave Rango dissoc inh -22%, miR-21 reporter 0% and Rango-impB inh -2.0%.
For COc1ccc(N2C(=O)NC(NC(=O)c3ccncc3)(C(F)(F)F)C2=O)cc1 (stereo unspecified) the results were Rango dissoc inh 25%, GLA inh pH 4.5 0, miR-21 reporter -3% and Rango-impB inh 0.1%.
`COc1cccc(C(c2nnnn2CC2CCCO2)N2CCN(C(=O)c3ccco3)CC2)c1OC` (stereo unspecified) gave Rango dissoc inh -17%, GLA inh pH 4.5 12, miR-21 reporter -2% and Rango-impB inh -2.1%.
Screening COc1ccc(N)cc1NC(=O)CN1CCCC1 returned Rango dissoc inh -6%, miR-21 reporter 0% and Rango-impB inh -0.6%.
OCCN(Cc1ccccc1)Cc1ccc(C(F)(F)F)cc1 was read as Rango dissoc inh 36%, GLA inh pH 4.5 -8, miR-21 reporter -3% and Rango-impB inh 1.5%.
For Cc1ccnc(NC(=O)C23CC4CC(CC(C4)C2)C3)c1 the results were Rango dissoc inh -10%, GLA inh pH 4.5 0, miR-21 reporter -5% and Rango-impB inh inconclusive.
Cc1ccc(C(=O)CN2/C(=C(\O)c3ccccc3)C(=O)c3ccccc3S2(=O)=O)c(C)c1 was read as Rango dissoc inh -14%, GLA inh pH 4.5 -9, miR-21 reporter 27% and Rango-impB inh -1.3%.
Screening CNc1ccccc1C(=O)OCC(=O)Nc1ccc2c(c1)OCO2 returned Rango dissoc inh 7% and Rango-impB inh 1.0%.
Screening Cn1c(=O)c2c(nc(SCCCC#N)n2Cc2c(F)cccc2Cl)n(C)c1=O returned Rango dissoc inh -4%, GLA inh pH 4.5 7, miR-21 reporter -13% and Rango-impB inh 1.4%.
`CSc1ccccc1NC(=O)CN1CCN(Cc2ccccc2)CC1` gave GLA inh pH 4.5 -2 and miR-21 reporter -10%.
Screening COc1ccccc1CNC(=O)[C@H](NC(=O)C1CCN(C(=O)[C@@H](N)CCSC)CC1)C(C)C returned Rango dissoc inh 0%, miR-21 reporter -3% and Rango-impB inh -0.9%.
CC(Oc1ccccc1)C(=O)Nc1nnc(S(=O)(=O)Nc2ccccc2)s1 (stereo unspecified) was read as Rango dissoc inh 15%, miR-21 reporter -2% and Rango-impB inh 0.0%.
`Cn1ncc2c(NCCc3ccccc3)nc(Cl)nc21` gave Rango dissoc inh 8% and Rango-impB inh 0.5%.
CCc1ccc(C2NC(=S)NC3=C2C(=O)N(c2ccccc2OC)C(c2ccc(CC)cc2)N3)cc1 (stereo unspecified) was read as Rango dissoc inh 2%, GLA inh pH 4.5 -13, miR-21 reporter 11% and Rango-impB inh -5.1%.
For O=C(NCCN1CCOCC1)c1cc(-c2cccc(Cl)c2)on1 the results were Rango dissoc inh -2%, miR-21 reporter -27% and Rango-impB inh inconclusive.
O=C(NCCCn1ccnc1)c1cc(Cl)cc(Cl)c1 was read as Rango dissoc inh 9%, miR-21 reporter -1% and Rango-impB inh -0.5%.
`CC1(C)CN(c2ccccc2)N(C(=O)c2ccc(F)cc2)C1=O` gave Rango dissoc inh -10%, GLA inh pH 4.5 3, miR-21 reporter 9% and Rango-impB inh -0.6%.
`NNC(=S)NCc1ccccc1` gave Rango dissoc inh 27%, GLA inh pH 4.5 -2, miR-21 reporter -4% and Rango-impB inh 2.0%.
Screening O=C(Cc1cccc([N+](=O)[O-])c1)Nc1cccc(C(=O)N2CCOCC2)c1 returned Rango dissoc inh -8% and Rango-impB inh -0.7%.
COc1ccc(S(=O)(=O)CCC(=O)N2CCN(c3ccc(F)cc3)CC2)cc1 was read as Rango dissoc inh 1%, GLA inh pH 4.5 0[21.1 µM], miR-21 reporter 6% and Rango-impB inh inconclusive.
`FC(F)Oc1ccc(C2=Nn3c(nnc3-c3ccccc3Cl)SC2)cc1OCC1CC1` gave Rango dissoc inh -7% and Rango-impB inh -2.0%.
`COC(=O)c1cccc(NC(N)=S)c1` gave Rango dissoc inh -7%, GLA inh pH 4.5 -6, miR-21 reporter -2% and Rango-impB inh 0.7%.
